NPYLR7 ag – mosquito NPYLR7 agonism. HEK293T NPYLR7/Galpha15, GCaMP6s calcium fluorescence. activation, % at 10 µM. actives 0.15% (n = 270,000). AID 1259423; in the data active means activation above about 40%;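 further: 0% = vehicle and 100% = reference agonist at the receptor; some compounds past the cut are filed as inactive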
NPYLR7 ag max-min – further read-out of NPYLR7 ag, marked with its call; activation, %; measured here: Max-Min RFU normalised activation; some inactives read as strong as hits;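 span of the calcium signal over five minutes; 0% = vehicle and 100% = native peptide agonist; compound fluorescence can raise it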
An asterisk follows results filed as active.

CCSCCC(=O)NC1CCN(c2ccccc2Cl)C1=O (configuration not stated) was read as NPYLR7 ag 10 and NPYLR7 ag max-min 7.
CSc1ccc2cc(CN(C)Cc3ccncc3C)c(=O)[nH]c2c1 was read as NPYLR7 ag 17 and NPYLR7 ag max-min 10.
`CN(C(=O)CSCC(=O)O)C1CCCCC1` gave NPYLR7 ag 1 and NPYLR7 ag max-min 5.
`CCc1nc(C)c(C(=O)Nc2cc(C(=O)N(CC)CC)ccc2Cl)o1` gave NPYLR7 ag 4 and NPYLR7 ag max-min -7.
`N#CSc1ccc(NS(=O)(=O)c2ccc3c(c2)OCCO3)c(F)c1` gave NPYLR7 ag 7 and NPYLR7 ag max-min 18.
`C=CCNC(=O)CNC(C)(C)c1ccc2c(c1)OCO2` gave NPYLR7 ag 5 and NPYLR7 ag max-min 1.
Screening CCOC(=O)C1=C(C)NC(C)=C(C(=O)OCC)C1C(=O)OCC(=O)N1CCOCC1 returned NPYLR7 ag 1 and NPYLR7 ag max-min -1.
For O=S1(=O)CCC(N(CC2CCCO2)C(=S)NC2CC3CCC2C3)C1 (configuration not stated) the results were NPYLR7 ag 4 and NPYLR7 ag max-min 4.
`CCOc1ccc(CN2CCCn3cccc3C2c2ccc([N+](=O)[O-])cc2)cc1` (configuration not stated) gave NPYLR7 ag 18 and NPYLR7 ag max-min 18.
For CCOC(=O)c1c(CCCO)cnc2cc(C)nn12 the results were NPYLR7 ag 0 and NPYLR7 ag max-min 4.
CCN(CC(=O)N(C)C)Cc1ccnc(Cl)c1 was read as NPYLR7 ag 5 and NPYLR7 ag max-min 2.
For COc1ccc(N2CCN(c3cc(C(=O)NCc4ccccc4)ncn3)CC2)cc1OC the results were NPYLR7 ag -4 and NPYLR7 ag max-min -10.
Screening CCCC(C(=O)NC1CCN(S(C)(=O)=O)CC1)n1cccc1 (configuration not stated) returned NPYLR7 ag 4 and NPYLR7 ag max-min 3.
Cc1ccc2nc3c(cc(C#N)c(=O)n3CCN3CCOCC3)c(=O)n2c1 was read as NPYLR7 ag 0 and NPYLR7 ag max-min -1.
For N#CC(=Cc1ccc(C#N)cc1)c1ccc([N+](=O)[O-])cc1 the results were NPYLR7 ag 4 and NPYLR7 ag max-min 22.
CN(C)C(=O)CSc1nnc(-c2cccs2)n1C1CC1 was read as NPYLR7 ag 8 and NPYLR7 ag max-min 12.
Screening CCCCc1ccc(Nc2nnc(SCC(=O)NC3CCCC3)s2)cc1 returned NPYLR7 ag 0 and NPYLR7 ag max-min 2.
`COc1ccc(C2CC(=O)C3=C(C2)N=C(C)C(C#N)C3c2ccc(Cl)c(Cl)c2)cc1` (configuration not stated) gave NPYLR7 ag 12 and NPYLR7 ag max-min 8.
`NC1(C(=O)N[C@@H](CCO)c2ccc(Cl)cc2)CCN(c2ncnc3[nH]ccc23)CC1` gave NPYLR7 ag 1 and NPYLR7 ag max-min -5.
For CCC(Cc1ccccc1)OC(=O)c1ccc(S(C)(=O)=O)o1 (configuration not stated) the results were NPYLR7 ag -3 and NPYLR7 ag max-min -7.
For COc1ccc(N2CCN(Cn3nc(-c4ccncc4)n(C)c3=S)CC2)cc1 the results were NPYLR7 ag 9 and NPYLR7 ag max-min 7.
For O=C(O)c1ccccc1SC/C=C/c1ccccc1 the results were NPYLR7 ag -7 and NPYLR7 ag max-min -7.
CCCCN(CC(=O)N1CCc2sccc2C1c1ccc(OC)cc1)S(=O)(=O)c1ccc(Cl)cc1 (configuration not stated) was read as NPYLR7 ag -2 and NPYLR7 ag max-min 5.
`C=CCCC(O)CNc1ccc(-n2nc(OCCOCC)nc2-c2ccccc2C)cc1` (configuration not stated) gave NPYLR7 ag -1 and NPYLR7 ag max-min 7.
For CC(SC1CCCC1)C(=O)Nc1ncc(Cl)cc1Cl (configuration not stated) the results were NPYLR7 ag -16 and NPYLR7 ag max-min -20.
For CCSc1nnc(NC(=O)CN(C)Cc2cnn(C)c2C)s1 the results were NPYLR7 ag 4 and NPYLR7 ag max-min 2.
For Cc1nc2sc(C)c(C)n2c(=O)c1NC(=O)COc1ccccc1F the results were NPYLR7 ag 32 and NPYLR7 ag max-min 26.
`Cc1ccc(C(C)NS(=O)(=O)c2ccc3c(c2)CCCC3)o1` (configuration not stated) gave NPYLR7 ag 1 and NPYLR7 ag max-min -1.
Screening CN(CC(=O)NCC(O)c1ccsc1)c1ccc(C#N)cn1 (configuration not stated) returned NPYLR7 ag 2 and NPYLR7 ag max-min 1.
Screening CCOC(=O)N1CCC(N2CCCC(C(=O)Nc3cccc(-n4cccn4)c3)C2)CC1 (configuration not stated) returned NPYLR7 ag 17 and NPYLR7 ag max-min 18.

Six entries out of the list, sorted by count of non-hydrogen atoms, highest first.
`COc1ccc(C2CC(=O)C3=C(C2)N=C(C)C(C#N)C3c2ccc(Cl)c(Cl)c2)cc1` (configuration not stated) gave NPYLR7 ag 12 and NPYLR7 ag max-min 8.
`CCOc1ccc(CN2CCCn3cccc3C2c2ccc([N+](=O)[O-])cc2)cc1` (configuration not stated) gave NPYLR7 ag 18 and NPYLR7 ag max-min 18.
For COc1ccc(N2CCN(Cn3nc(-c4ccncc4)n(C)c3=S)CC2)cc1 the results were NPYLR7 ag 9 and NPYLR7 ag max-min 7.
CCSCCC(=O)NC1CCN(c2ccccc2Cl)C1=O (configuration not stated) was read as NPYLR7 ag 10 and NPYLR7 ag max-min 7.
`C=CCNC(=O)CNC(C)(C)c1ccc2c(c1)OCO2` gave NPYLR7 ag 5 and NPYLR7 ag max-min 1.
For O=C(O)c1ccccc1SC/C=C/c1ccccc1 the results were NPYLR7 ag -7 and NPYLR7 ag max-min -7.

Fetched by compound from the entries so far, four records:
For COc1ccc(N2CCN(Cn3nc(-c4ccncc4)n(C)c3=S)CC2)cc1 the results were NPYLR7 ag 9 and NPYLR7 ag max-min 7.
For CCC(Cc1ccccc1)OC(=O)c1ccc(S(C)(=O)=O)o1 (configuration not stated) the results were NPYLR7 ag -3 and NPYLR7 ag max-min -7.
Screening CCOC(=O)N1CCC(N2CCCC(C(=O)Nc3cccc(-n4cccn4)c3)C2)CC1 (configuration not stated) returned NPYLR7 ag 17 and NPYLR7 ag max-min 18.
`NC1(C(=O)N[C@@H](CCO)c2ccc(Cl)cc2)CCN(c2ncnc3[nH]ccc23)CC1` gave NPYLR7 ag 1 and NPYLR7 ag max-min -5.

New compounds follow.
COc1cc(/C=C/C(=O)Nc2c3c(nn2-c2ccccc2)CSC3)cc(OC)c1OC was read as NPYLR7 ag -1 and NPYLR7 ag max-min 0.
`COc1cc(C=CC(=O)c2ccc(C#N)cc2)ccc1O` gave NPYLR7 ag 3 and NPYLR7 ag max-min 2.
Screening COC(=O)c1ccc(C=CC(=O)c2ccc(OC)cc2)cc1 returned NPYLR7 ag 0 and NPYLR7 ag max-min -3.
`CC(=O)Nc1ccc(C(=O)N(C2CC2)C(C)(C)C(=O)Nc2ccc(F)cc2)cc1` gave NPYLR7 ag 3 and NPYLR7 ag max-min -3.
`O=C(c1cc2n(n1)CCN(Cc1cccc(F)c1)C2=O)N1CCN(c2cccc(Cl)c2)CC1` gave NPYLR7 ag 5 and NPYLR7 ag max-min 5.
Screening O=C(OCc1cc2c(Cl)cccc2[nH]1)c1cscn1 returned NPYLR7 ag 6 and NPYLR7 ag max-min 4.
Screening NCc1ccc(F)c(-c2ccccc2-c2ccccc2)c1 returned NPYLR7 ag 6 and NPYLR7 ag max-min 6.
Screening FC(F)(F)c1ccc(-c2nc(CSc3ccc(Cl)cc3Cl)cs2)cc1 returned NPYLR7 ag 3 and NPYLR7 ag max-min 1.
Cc1nc(CC(C)C)c(C(=O)O)s1 was read as NPYLR7 ag 1 and NPYLR7 ag max-min -8.
For CN(C)c1ccc(/C=N\Nc2nc(N3CCCC3)nc(N3CCOCC3)n2)cc1 the results were NPYLR7 ag 17 and NPYLR7 ag max-min 3.
CN(Cc1ccc(CN(C)S(C)(=O)=O)o1)C1CCCc2ccccc21 (configuration not stated) was read as NPYLR7 ag -6 and NPYLR7 ag max-min -7.
Screening COCCN1C(=O)C(=Cc2c(N3CCCCC3)nc3c(C)cccn3c2=O)SC1=S returned NPYLR7 ag 4 and NPYLR7 ag max-min 2.
`Nc1n[nH]c(-c2ccccc2Br)n1` gave NPYLR7 ag -3 and NPYLR7 ag max-min -6.
`O=C(O)c1cnc2ncnn2c1C(F)(F)F` gave NPYLR7 ag -3 and NPYLR7 ag max-min -1.
c1ccc(-c2ncn(Cc3noc(C4CCCO4)n3)c2-c2ccsc2)cc1 (configuration not stated) was read as NPYLR7 ag 10 and NPYLR7 ag max-min 25.
Screening O=c1c2nnn(-c3ccccc3)c2ncn1Cc1ccc(Cl)cc1Cl returned NPYLR7 ag 8 and NPYLR7 ag max-min 8.
`Cc1ccc(-n2ncc3c(=O)n(NC(=O)c4cc([N+](=O)[O-])ccc4Cl)cnc32)cc1` gave NPYLR7 ag 2 and NPYLR7 ag max-min -1.
Screening N[C@@H]1c2ccccc2C2(CCN(C(=O)CCn3cc(Cl)cn3)CC2)[C@H]1O returned NPYLR7 ag -5 and NPYLR7 ag max-min -7.
Screening COc1ccc(NC(C)=O)cc1NC(=O)C1CCCN(C(=O)c2ccoc2)C1 (configuration not stated) returned NPYLR7 ag 16 and NPYLR7 ag max-min 8.
`COc1ccc(S(=O)(=O)NCC2CCCN(C(=O)c3cnc(C)cn3)C2)cc1` (configuration not stated) gave NPYLR7 ag 1 and NPYLR7 ag max-min 1.
`CCC(CO)[n+]1c(C)cc(C=C2Sc3ccccc3N2Cc2ccccc2)cc1C` (configuration not stated) gave NPYLR7 ag 150* and NPYLR7 ag max-min 219*.
Screening CCS(=O)(=O)c1nnnn1-c1ccccc1 returned NPYLR7 ag 31 and NPYLR7 ag max-min 17.
For O=[N+]([O-])c1cccc2ncccc12 the results were NPYLR7 ag -5 and NPYLR7 ag max-min -9.
O=C(O)CCc1nc(-c2cccs2)no1 was read as NPYLR7 ag 0 and NPYLR7 ag max-min -2.
O=[N+]([O-])c1ccc2nc(SCc3csc(-c4ccc(C(F)(F)F)cc4)n3)sc2c1 was read as NPYLR7 ag 25 and NPYLR7 ag max-min 23.
Screening CC(=O)N1CCC(S(=O)(=O)NCc2ccc(N(C)C)cc2)CC1 returned NPYLR7 ag 10 and NPYLR7 ag max-min 7.
For Nc1cc(=O)[nH]c(SCc2nc3ccccc3c(=O)[nH]2)n1 the results were NPYLR7 ag 0 and NPYLR7 ag max-min -2.
For C[C@]12C=CC(=O)C=C1CC[C@@H]1[C@@H]2[C@@H](O)C[C@@]2(C)[C@H]1CC[C@]2(O)C(=O)COC(=O)CCC(=O)O the results were NPYLR7 ag -2 and NPYLR7 ag max-min -3.
`Cc1nc2ccccn2c(=O)c1NC(=O)c1ccc(Br)o1` gave NPYLR7 ag -2 and NPYLR7 ag max-min -3.
`COCCCNC(=O)CN1CN(c2ccccc2)C2(CCN(C(=O)c3cccc(Br)c3)CC2)C1=O` gave NPYLR7 ag 30 and NPYLR7 ag max-min 31.
For Cc1ccc(Nc2nc(N3CCN(C)CC3)nc(N)c2[N+](=O)[O-])cc1 the results were NPYLR7 ag 1 and NPYLR7 ag max-min 0.
For COc1ccc(/C=C2\C=C(c3ccccc3)N(c3cccc4ccccc34)C2=O)cc1Br the results were NPYLR7 ag -1 and NPYLR7 ag max-min 5.
Screening CCCn1c(=O)c2[nH]c(-c3ccc(OCC(=O)NCCN)cc3)nc2n(CCC)c1=O returned NPYLR7 ag 2 and NPYLR7 ag max-min 18.
Cc1cc(NC(=O)N(C)CC(C)C)ccc1N1CCSCC1 was read as NPYLR7 ag -2 and NPYLR7 ag max-min -2.
COc1ccc(OC)c(S(=O)(=O)N2CCN(c3cccc(C)c3C)CC2)c1 was read as NPYLR7 ag 2 and NPYLR7 ag max-min -3.
Screening CCC(C)(C)NC(=O)CSc1nc2ccccc2c(=O)n1-c1ccc(C)cn1 returned NPYLR7 ag 0 and NPYLR7 ag max-min 6.
Screening CCCNC(=O)Cn1cnc2c(nnn2C)c1=O returned NPYLR7 ag 1 and NPYLR7 ag max-min 6.
For CCc1nc2n(n1)C(=O)C(C(c1ccc(F)cc1)N1CCN(C)CC1)S2 (configuration not stated) the results were NPYLR7 ag -6 and NPYLR7 ag max-min -10.
For CCN(Cc1ccncc1)C1CCCN(S(=O)(=O)c2cccc3cccnc23)C1 (configuration not stated) the results were NPYLR7 ag 7 and NPYLR7 ag max-min 3.
For CC(NC(=O)c1ccc(S(=O)(=O)NCc2ccco2)cc1)c1ccco1 (configuration not stated) the results were NPYLR7 ag 4 and NPYLR7 ag max-min 14.
COc1ccc(C(=O)CSc2nnc(-c3ccccc3OC)o2)cc1 was read as NPYLR7 ag 2 and NPYLR7 ag max-min 2.
COc1ccc(CN(Cc2ccc(F)cc2)Cc2nc(C(=O)NCc3ccccn3)co2)cc1 was read as NPYLR7 ag 27 and NPYLR7 ag max-min 23.
`O=C1C(C(c2cccs2)N2CCN(Cc3ccccc3)CC2)Sc2ncnn21` (configuration not stated) gave NPYLR7 ag 6 and NPYLR7 ag max-min 2.
`CCOC(=O)C1=C(C)N=c2s/c(=C\c3cc(Cl)cc(Cl)c3O)c(=O)n2C1c1ccc(OC)cc1` (configuration not stated) gave NPYLR7 ag 12 and NPYLR7 ag max-min 17.
For Cc1ccc(-n2c(CNC(=O)c3cc(C(F)(F)F)cc(C(F)(F)F)c3)nnc2SCc2ccccc2C)cc1 the results were NPYLR7 ag -3 and NPYLR7 ag max-min -2.
Screening COc1ccc(-c2nc(CC(=O)N3CCc4ccccc4C3c3ccccc3Cl)c(C)o2)cc1 (configuration not stated) returned NPYLR7 ag 12 and NPYLR7 ag max-min 10.
`O=C(Nc1ccccc1N1CCOCC1)NC1CCCCC1` gave NPYLR7 ag -5 and NPYLR7 ag max-min -8.
`COC(=O)[C@H](C)NC(=O)c1cn[nH]c1-c1ccc(F)c(Cl)c1` gave NPYLR7 ag 0 and NPYLR7 ag max-min 12.
For CC(=O)N1N=C(c2cccc(Cl)c2)OC1c1ccc(F)cc1 (configuration not stated) the results were NPYLR7 ag -5 and NPYLR7 ag max-min -9.
COCCN(Cc1nc2cc(Cl)ccc2o1)C(=O)CCC(=O)OC was read as NPYLR7 ag 4 and NPYLR7 ag max-min 3.
For CC(C)CNC(=O)Cn1nnc(-c2ccccc2)n1 the results were NPYLR7 ag 3 and NPYLR7 ag max-min -1.

The list is partial. The share of hits here may be higher or lower than overall.
